Tau fluor cs: counter-screen for tau fibril formation inhibitors | hit rate 0.93% among 280,000 | Potency, µM (series often up to 57.7 µM), inactives show at the highest dose activity change, negative = decrease | tau K18 P301L Alexa594 fluorescence, heparin fibrillization; also: nearly all actives have a fitted effect of over 55% in size
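Human tau K18 P301L (15 uM unlabeled, 0.24 uM Alexa 594-labeled) in 100 mM sodium acetate pH 7 with 20 uM heparin, 6 hr at 37 C. ThT 30 uM added, 1 hr ambient; Alexa 594 FP and total fluorescence read at 555/632 nm.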
aGal spleen mod: inhibitors or activators of human alpha-galactosidase in spleen homogenate | P06280 | human spleen homogenate, 4MU-alpha-Gal fluorescence, 40 min | Potency, µM (series often up to 80 µM), without a hit: at the top dose activity change, negative = inhibition, actives largely listed as inhibitors | hit rate 0.008% among 240,000;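 also: 0% = enzyme with vehicle and -100% = no enzyme basal signal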
Target sequence (P06280 32-429 limits assumed): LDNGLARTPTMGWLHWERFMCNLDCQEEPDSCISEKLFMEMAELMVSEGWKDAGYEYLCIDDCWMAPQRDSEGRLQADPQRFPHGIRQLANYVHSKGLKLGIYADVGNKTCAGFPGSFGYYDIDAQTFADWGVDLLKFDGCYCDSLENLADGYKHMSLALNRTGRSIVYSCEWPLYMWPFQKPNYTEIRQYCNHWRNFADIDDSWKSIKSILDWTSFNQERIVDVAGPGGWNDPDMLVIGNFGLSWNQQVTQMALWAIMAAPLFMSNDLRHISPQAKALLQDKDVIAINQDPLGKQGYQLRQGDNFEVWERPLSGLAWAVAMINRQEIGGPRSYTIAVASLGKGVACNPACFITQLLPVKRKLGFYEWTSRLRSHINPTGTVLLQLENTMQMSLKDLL
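Spleen homogenate 1 ug + cpd (titration) + 4-MU-alpha-D-galactopyranoside 1 mM; 37C 40 min; 50 mM citrate/phosphate pH 5.0, 0.01% Tween-20; stop pH 10; fluorescence 365/440; AC50 via Hill.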
TR SRC2 fluor cs: counter-screen for TRb-SRC2 inhibitors: fluorescence interference; TRb/SRC2 Texas Red total fluorescence interference; Potency, µM (highest dose often 106 µM), without a hit: top-dose fluorescence change, negative = quenching; hit rate 0.29% among 280,000; active = well fitted curve in either direction with a large enough effect; inconclusive = small, poorly fitted or top-dose-only effect
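Flags fluorescent or light-absorbing compounds by total fluorescence, S + 2P, at 555 nm excitation and 632 nm emission. Mixture: 20 nM Texas Red SRC2 peptide, 0.6 uM human TRb LBD, 1 uM T3, 5% DMSO; compound exposure 5 h at ambient temperature.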
L3MBTL1 inh: inhibitors of human L3MBTL1. AlphaScreen L3MBTL1–H3K9me1 peptide binding. Potency, µM (highest dose often 57.1 µM), for inactives: top-dose activity, negative = inhibition, actives largely listed as inhibitors. hit rate 0.66% among 230,000. AID 485360; also: nearly all actives have a fitted effect of over 60% in size
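L3MBTL1 (50 nM) pre-complexed 30 min with biotinylated H3(1-15)K9me1 peptide (75 nM), then compounds added for 30 min at room temperature; AlphaScreen streptavidin donor/nickel chelate acceptor beads (10 ug/mL final) read after 30 min dark incubation.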
Tau FP inhib: inhibitors of human tau fibril formation. K18 P301L tau heparin fibrillization, Alexa594 FP, 6 h. Potency, µM (doses to about 57.7 µM), for the others: at the highest dose activity, negative = inhibition, hits mostly inhibitors. hit rate 0.39% among 280,000; also: nearly all actives have a fitted effect of over 55% in size
Target sequence (P10636 561-689 P618L limits assumed): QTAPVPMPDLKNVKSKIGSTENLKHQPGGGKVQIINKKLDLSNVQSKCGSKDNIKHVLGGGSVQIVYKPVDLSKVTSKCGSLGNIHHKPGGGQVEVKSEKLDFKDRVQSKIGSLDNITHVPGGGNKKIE
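FP of Alexa 594-tau after heparin (20 uM) induction. Substrate: human K18 P301L, 15 uM unlabeled, 0.24 uM labeled. Buffer 100 mM sodium acetate pH 7. 6 hr, 37 C.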
Tau fibril ThT: blocks human tau fibril formation measured by thioflavin T. Potency, µM (highest dose often 57.4 µM), inactives show at the top dose activity, negative = inhibition, hits mostly inhibitors. recombinant tau K18 P301L (four-repeat tau fragment), heparin-induced fibrillization, ThT fluorescence. P10636. AID 1460. hit rate 2.1% among 270,000; also: nearly all actives have a fitted effect of over 55% in size
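Heparin-induced (20 uM) aggregation of recombinant human K18 P301L tau, 15 uM unlabeled with 0.24 uM labeled, pH 7 acetate buffer, 6 hr at 37 C with compound. Fibrils quantified by 30 uM ThT fluorescence after 1 hr ambient incubation.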
TRb-SRC2 inh: TRbeta-SRC2 interaction inhibition; Potency, µM (series often up to 106 µM), for the others: top-dose activity change, negative = inhibition, actives largely listed as inhibitors; P10828; hit rate 0.065% among 280,000; TRbeta-SRC2 peptide binding, fluorescence polarization; receptor liganded with 1 µM T3;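 also: plate controls were bound peptide for no effect and peptide without receptor for full effect; nearly all actives have a fitted effect of over 50% in size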
Target sequence (P10828 whole entry, looked up): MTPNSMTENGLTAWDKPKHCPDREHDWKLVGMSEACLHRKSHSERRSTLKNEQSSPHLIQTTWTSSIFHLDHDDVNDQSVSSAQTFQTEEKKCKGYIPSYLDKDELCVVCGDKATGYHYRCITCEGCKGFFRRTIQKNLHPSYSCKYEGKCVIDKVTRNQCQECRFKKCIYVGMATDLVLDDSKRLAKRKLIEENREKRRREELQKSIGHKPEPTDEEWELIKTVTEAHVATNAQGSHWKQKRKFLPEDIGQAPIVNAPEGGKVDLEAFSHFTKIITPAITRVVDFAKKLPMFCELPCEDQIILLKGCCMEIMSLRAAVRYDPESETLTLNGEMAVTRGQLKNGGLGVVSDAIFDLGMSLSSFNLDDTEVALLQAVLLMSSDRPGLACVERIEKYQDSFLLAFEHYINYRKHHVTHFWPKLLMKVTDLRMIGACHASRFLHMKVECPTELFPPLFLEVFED
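Human TRb ligand-binding domain (0.6 uM) is mixed with 20 nM Texas Red SRC2 peptide and 1 uM T3; after compound addition and 5 hr at ambient temperature, polarization is measured and normalized to unbound and bound controls.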
An asterisk follows results filed as active; ? = inconclusive; . = no result given; & = joins results of further samples; [ ] = dose if it differs, or a comment. Unless noted, calls follow the shape of the dose curve; as a rule, active = well fitted curve in the direction sought with a large enough effect; inconclusive = small, poorly fitted or top-dose-only effect, or another doubt; inactive = no such curve, though single readings can be large; an effect the other way counts as inactive or inconclusive. Unless noted, % is scaled to controls: 0 for no effect and ±100 for the full control effect; potency is read from the fitted curve at half-maximal effect. This is a subset; the hit share may differ from the screen's.

structure	Tau fluor cs	aGal spleen mod	TR SRC2 fluor cs	L3MBTL1 inh	Tau FP inhib	Tau fibril ThT	TRb-SRC2 inh
COc1ccc(N=c2scc(C)n2CCCN2CCCC2=O)cc1	-15%	7%	-3%	-18%	-4%	-14%	-8%
CCOC(=O)c1sc2nc(CSc3ccccc3)[nH]c(=O)c2c1C	9%	8%	-2%	7%	3%	8%	-10%
COc1cccc(C2CC(c3cccs3)=NN2S(C)(=O)=O)c1OC (centres undefined)	-5%	6%	-1%	-4%	-11%	-2%	5%
O=C(O)c1ccccc1Nc1ccccc1C(=O)O	0%	5%	-5%	8%	-5%	-3%	-2%
CCOc1ccc(Oc2nc(N(CC)CC)nc(N3CCOCC3)n2)nn1	-2%	10%	-1%	9%	-2%	0%	-1%
NS(=O)(=O)c1ccc(NC(=O)CN2CCN(Cc3ccccc3)CC2)cc1	4%	1%	1%	.	-1%	-7%	3%
C=CCOc1cccc(C2C(C(=O)c3ccc(C)o3)=C(O)C(=O)N2Cc2ccncc2)c1 (centres undefined)	-10%	-5%	2%	-6%	-13%	?	8%
CCS(=O)(=O)N1CCC(C(=O)NCc2ccco2)CC1	5%	4%	0%	5%	0%	1%	-2%
COc1cccc(Cn2nnc(C(=O)NCCc3ccc(Cl)cc3)c2N)c1	-19%	-2%	0%	.	?	-11%	2%
COc1cccc(CNc2ccc(F)c([N+](=O)[O-])c2)c1O	-9%	0%	1%	-13%	2%	-17%	3%
Cc1ccc(S(=O)(=O)NCC(=O)N(CC(=O)NCc2ccco2)Cc2ccc3c(c2)OCO3)cc1	7%	13%	-1%	-6%	11%	-3%	-4%
Cn1c(CC(=O)NCCO)c(Sc2ccccc2)c2ccccc21	-25%	-13%	-2%	-5%	-2%	-3%	5%
CS(=O)(=O)N(CCc1ccccc1)CC(=O)NCc1ccco1	0%	2%	0%	29%[11.4 µM]	1%	0%	-1%
Cc1ccc(S(=O)(=O)Nc2ccccc2CNc2ccc(Br)cn2)cc1	?	5%	-5%	-8%	?	2%	-3%
COc1ccc(OCCOc2ccccc2[N+](=O)[O-])cc1	-21%	-1%	-2%	0%	2%	-16%	0%
Cc1cc(S(=O)(=O)N2CC(=O)N(CCc3ccccc3)C(=O)C2)ccc1F	-7%	2%	.	18%	0%	-4%	.
Cc1ccnn1CCC(=O)N1CCCC(CCC(=O)NCc2ccccc2F)C1 (centres undefined)	-9%	0%	-4%	8%	1%	-10%	2%
O=C(C1CCCN(Cc2nc(-c3cccs3)no2)C1)N1CCOCC1 (centres undefined)	-9%	-5%	-7%	8%	3%	-11%	1%
O=C(CCSc1nnc(-c2ccncc2)o1)Nc1ccccc1Cl	3%	4%	0%	.	3%	?	3%
COCCNCCCCOc1c(Cl)cc(C)cc1Br	2%	-1%	2%	4%	0%	1%	-5%
O=C(c1ccc(Oc2cc(Cl)cc(Cl)c2)o1)N1CCCCC1	-15%	5%	-10%	-21%	7%	?	-6%
Cc1noc(C)c1C(=O)N1CCCC(C(=O)c2cccc(C(F)(F)F)c2)C1 (centres undefined)	-2%	-13%	-4%	-2%	0%	-10%	1%
COc1ccc(OCC(=O)NNC(=O)c2cccc(O)c2)cc1	-1%	-13%	-3%	.	0%	1%	-3%
Cc1cc(C)nc(SC(C(=O)O)c2ccccc2)n1 (centres undefined)	2%	7%	-13%	11%	-2%	4%	8%

Reformatted field by field: part of the list above.
> O=C(c1ccc(Oc2cc(Cl)cc(Cl)c2)o1)N1CCCCC1
  Tau fluor cs: -15%
  aGal spleen mod: 5%
  TR SRC2 fluor cs: -10%
  L3MBTL1 inh: -21%
  Tau FP inhib: 7%
  Tau fibril ThT: ?
  TRb-SRC2 inh: -6%

> O=C(C1CCCN(Cc2nc(-c3cccs3)no2)C1)N1CCOCC1 (centres undefined)
  Tau fluor cs: -9%
  aGal spleen mod: -5%
  TR SRC2 fluor cs: -7%
  L3MBTL1 inh: 8%
  Tau FP inhib: 3%
  Tau fibril ThT: -11%
  TRb-SRC2 inh: 1%

> COCCNCCCCOc1c(Cl)cc(C)cc1Br
  Tau fluor cs: 2%
  aGal spleen mod: -1%
  TR SRC2 fluor cs: 2%
  L3MBTL1 inh: 4%
  Tau FP inhib: 0%
  Tau fibril ThT: 1%
  TRb-SRC2 inh: -5%

> COc1ccc(OCC(=O)NNC(=O)c2cccc(O)c2)cc1
  Tau fluor cs: -1%
  aGal spleen mod: -13%
  TR SRC2 fluor cs: -3%
  L3MBTL1 inh: .
  Tau FP inhib: 0%
  Tau fibril ThT: 1%
  TRb-SRC2 inh: -3%

Continuation:
structure	Tau fluor cs	aGal spleen mod	TR SRC2 fluor cs	L3MBTL1 inh	Tau FP inhib	Tau fibril ThT	TRb-SRC2 inh
O=C(COc1ccccc1)Nc1ccc([N+](=O)[O-])cc1	3%	-13%	0%	11%	-1%	-8%	0%
Clc1ccc(-c2nnc(-c3ccccc3)c(N3CCSCC3)n2)cc1	-8%	-11%	-2%	-3%	0%	-14%	7%
Cc1ccc(NC(=O)CS(=O)CC(=O)NCCCc2ccccc2)cc1Cl (centres undefined)	-19%	-5%	2%	8%	-1%	3%	-5%
CN(Cc1c(F)cccc1Cl)C(=O)c1cc2ccccc2o1	2%	-3%	0%	20%	6%	-7%	-7%
CCN(CC)/C(=N/S(=O)(=O)c1ccc(C)cc1)c1ccccc1	-4%	-2%	-4%	.	-1%	-10%	-15%
CCOc1[nH]n(-c2ccc(Cl)cc2)c(=O)c1C=NCc1cccnc1	-23%	-5%	-1%	-25%	12%	-13%	-7%
CC1=CN2C(=N)/C(=C/c3ccc(C)o3)C(=O)N=C2S1	-11%	0%	?	-9%	2%	?	11%
O=C(NCc1ccco1)C1CCCN1C(=O)Nc1cccc(Cl)c1 (centres undefined)	13%	9%	-3%	-23%	2%	12%	-1%
O=C(CSc1ncn(-c2ccccc2)n1)Nc1nncs1	2%	-5%	-3%	-6%	?	1%	8%
Cc1ccc(NC(=O)c2ncc(Cl)c(Cl)c2Cl)cc1C	-5%	-5%	1%	.	-3%	-18%	1%
N#CCCn1cc(C(=O)O)c(-c2cccs2)n1	7%	-5%	0%	-2%	2%	6%	-5%
COc1ccc(Cl)cc1NC(=S)NCc1cccs1	-30%	-1%	-1%	5%	-8%	0%	-9%
O=c1n(Cc2ccc(Cl)cc2)c2sc3c(c2c2ncnn12)CCCC3	0%	1%	1%	9%	7%	-15%	-5%
O=C(CCCN1C(=O)C2CCCCN2C1=O)N1CCN(c2ccc([N+](=O)[O-])cc2)CC1 (centres undefined)	-10%	-1%	-3%	3%	-2%	?	-12%
COc1ccc(Nc2ncc3c(n2)CC(c2ccccc2)CC3=O)cc1 (centres undefined)	-24%	-2%	-1%	0%	0%	-17%	-2%
CCc1ccccc1NC(=O)Cn1nnc(-c2cccnc2)n1	6%	8%	1%	-2%	5%	2%	3%
O=C(c1cnn(-c2ccc(Cl)cc2)c1)c1ccccc1O	?	6%	-1%	.	-14%	?	-1%
CC(=O)c1cccc(NC(=O)CCNS(=O)(=O)c2cccc3nsnc23)c1	6%	0%	-1%	.	10%	0%	1%
COc1cccc(=O)c2c(C)n(-c3ccc(C(=O)O)cc3)c(C)c12	-14%	5%	3%	25µM*	?	16µM*	-3%
CC(C)c1cc(CN2CCN(Cc3ccc(F)c(F)c3)C(CCO)C2)[nH]n1 (centres undefined)	-10%	6%	0%	-3%	-2%	-10%	1%
CCOC(=O)c1cnn(-c2ccc(Cl)cc2)c1C1CCN(C(=O)OC(C)(C)C)CC1	-11%	-27%	1%	.	6%	-22%	-19%
CN(C)C(=S)NC1(C)CCS(=O)(=O)C1 (centres undefined)	-7%	3%	2%	2%	-7%	-13%	6%
O=C1OC(c2ccc(Cl)cc2)=N/C1=C\c1cccnc1	-1%	2%	-2%	3%	1%	-1%	0%
COc1cccc(NC(=S)Nc2cc(C)cc(C)n2)c1	-10%	4%	0%	-11%	?	-14%	-4%
CCOC(=O)C(NC(C)=O)C(=O)Nc1ccc(C)cc1C (centres undefined)	6%	-6%	1%	3%	6%	6%	1%
N#Cc1c(-c2ccc(F)cc2)nc2n(c1=O)CCS2	-3%	4%	2%	.	4%	-2%	-5%
COC(=O)N/N=C/c1ccc(OS(=O)(=O)c2ccc(C)cc2)c(OC)c1	-25%	-1%	2%	-25%	-12%	-14%	9%
Cc1ccc(/C=N/n2c(C)nc3ccccc3c2=O)o1	-6%	-6%	-5%	5%	0%	-6%	-3%
CCOC(=O)c1cc(-c2nnc(-c3ccc(Cl)cc3)o2)c(C)nc1C	-3%	6%	1%	2%	3%	-11%	-2%
CN(C)c1ccc2c(=O)[nH][nH]c(=O)c2c1	-3%	18%	-2%	.	-11%	-2%	2%
Cc1cc(F)ccc1NCc1cccnc1	1%	2%	-1%	-1%	4%	-1%	-11%
O=C(NCCc1ccc(Cl)cc1)C1CCC(=O)N1Cc1ccccc1Cl (centres undefined)	2%	8%	1%	1%	5%	-2%	4%
CCNc1nc(NCC)n2c(SCC(=O)N(CC)C3CCCCC3)nnc2n1	9%	-3%	1%	-4%	-1%	5%	-3%
O=C(O)c1cccc(NCc2cccnc2)c1	-6%	9%	-5%	.	3%	-8%	6%
O=C(NCCc1ccccc1)C1CCN(S(=O)(=O)c2cccc3nonc23)CC1	-17%	-2%	3%	.	-16%	-5%	7%
O=C(NC1CCCCC1)C1CCN(c2nnnn2-c2ccccc2)CC1	6%	-7%	-5%	-5%	-5%	5%	3%
COc1cccc(CCC(=O)O)c1OC	0%	-3%	0%	5%	5%	0%	-10%
COc1ccc(C)cc1NC(=O)NCc1ccccn1	2%	-6%	6%	4%	0%	1%	-2%
CCOc1cc(CNCCc2ccc(S(N)(=O)=O)cc2)ccc1OCc1ccc(Cl)cc1	-22%	-2%	-2%	-4%	8%	?	-10%
O=C(O)Cc1ccc(NC(=O)Nc2cccc(Cl)c2)cc1	-20%	3%	0%	9%	0%	-13%	-5%
COc1nc(Nc2ccc([N+](=O)[O-])cc2)nc(NC(C)C)n1	-1%	11%	-1%	-15%	11%	5%	-1%
O=C(CSc1nnc(-c2ccncc2)n1Cc1ccccc1)NCCc1ccccc1	-13%	6%	0%	.	-6%	-1%	-25%
COc1ccc(S(=O)(=O)N2CCN(C3CCCCCCC3)CC2)cc1	-4%&-4%	-1%&1%	2%&-1%	-2%&13%	4%&-1%	4%&1%	11%&8%
COc1ccc(S(=O)(=O)N(Cc2cc3ccc(OC)cc3[nH]c2=O)CC2COCCO2)cc1 (centres undefined)	-2%	-7%	-7%	15%	1%	2%	-10%

Source: PubChem BioAssay (National Center for Advancing Translational Sciences (NCATS))
